Screens (PubChem BioAssay)
MLL AF4-AF9 inh: inhibitors of AF4 peptide binding to AF9, primary screen, biochemical, AlphaScreen, biotin-AF4 peptide, FLAG-AF9, single point; Protein AF-9 (Homo sapiens), P42568; actives 0.47% (n = 350,000); inhibition, % at 10 µM;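 active = every replicate reaching a set inhibition limit, whatever the replicate mean, cut at about 25% in these data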;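 also: 0% = plate neutral control median and 100% = total signal loss; the record names both 10 and 1 µM as test concentration; the first replicate is given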
Target sequence (P42568 whole entry, looked up): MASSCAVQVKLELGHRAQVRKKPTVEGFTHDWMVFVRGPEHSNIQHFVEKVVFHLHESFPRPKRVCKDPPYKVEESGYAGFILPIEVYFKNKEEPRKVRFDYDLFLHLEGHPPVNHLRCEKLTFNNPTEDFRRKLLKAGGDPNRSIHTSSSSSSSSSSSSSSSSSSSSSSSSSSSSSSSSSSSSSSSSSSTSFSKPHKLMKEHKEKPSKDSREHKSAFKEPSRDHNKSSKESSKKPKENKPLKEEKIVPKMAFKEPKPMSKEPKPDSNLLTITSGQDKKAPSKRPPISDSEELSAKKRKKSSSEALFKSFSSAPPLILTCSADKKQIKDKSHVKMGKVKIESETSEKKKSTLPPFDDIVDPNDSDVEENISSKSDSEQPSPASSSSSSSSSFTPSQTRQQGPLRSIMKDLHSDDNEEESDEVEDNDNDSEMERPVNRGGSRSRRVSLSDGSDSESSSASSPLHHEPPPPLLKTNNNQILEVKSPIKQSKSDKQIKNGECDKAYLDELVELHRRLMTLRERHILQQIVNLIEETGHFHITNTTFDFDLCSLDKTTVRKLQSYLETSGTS
FGF22 binding: binders of human FGF22 protein, primary screen, FGF22 synaptogenesis inhibitor project, biophysical, thermal shift, single point; AID 651658, 2012; recombinant FGF22 thermal shift, SYPRO orange fluorescence; percent of sucrose octasulfate shift, DMSO zero; calls only at 9.99 µM; actives 1.5% (n = 340,000); Fibroblast growth factor 22 (Homo sapiens), Q9HCT0;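 active = melting point raised past a set limit in the mean and every replicate; three in four hits are not shown here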
Target sequence (Q9HCT0 whole entry, looked up): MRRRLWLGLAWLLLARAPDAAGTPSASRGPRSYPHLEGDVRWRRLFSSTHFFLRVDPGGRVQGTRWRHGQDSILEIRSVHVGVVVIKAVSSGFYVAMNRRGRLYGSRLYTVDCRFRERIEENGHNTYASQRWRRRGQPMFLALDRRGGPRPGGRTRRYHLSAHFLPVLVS
An asterisk follows results filed as active; i = inactive; & = joins results of further samples. This is a subset; the hit share may differ from the screen's.

canonical_smiles | MLL AF4-AF9 inh | FGF22 binding
CN(C)C(=O)c1cccc(-c2ccccc2[C@H]2[C@@H](CO)N(C(=O)C3CC3)[C@H]2C#N)c1 | -0.8 | i
O=C(C1CCCCC1)N1[C@@H](CO)[C@@H](c2ccccc2)C12CN(Cc1cccc(Cl)c1)C2 | 8.6 | i
CCCNC(=O)N1C[C@@H](C)[C@H](OC)CN(C)C(=O)c2cc(NS(=O)(=O)CC)ccc2OC[C@@H]1C | -1.3 | i
CCCNC(=O)[C@H]1[C@H](CO)[C@H]2Cn3c(ccc(/C=C/c4ccccc4)c3=O)[C@@H]1N2C(=O)c1cccnc1 | -6.7 | i
C[C@@H]1CN([C@@H](C)CO)C(=O)Cc2cc(NC(=O)C3CC3)ccc2O[C@@H]1CN(C)Cc1ccc(C(=O)Nc2ccccc2N)cc1 | -0.8 | i
CC(=O)N(C)C[C@H]1Oc2cc(C#CC3CCCCC3)ccc2S(=O)(=O)N([C@H](C)CO)C[C@H]1C | 4.5 | i
COc1ccc(S(=O)(=O)Nc2ccc3c(c2)C(=O)N([C@@H](C)CO)C[C@H](C)[C@@H](CN(C)C(=O)Nc2ccccc2)O3)cc1 | 0.9 | i
C#CCNC(=O)C1=C[C@H](c2cn(C(C)=O)c3ccccc23)C[C@H](OCCCCO)O1 | 0.7 | i
COc1cccc(-c2ccc([C@@H]3[C@@H](CO)N4CCCCN(S(=O)(=O)c5cn(C)cn5)C[C@H]34)cc2)c1 | -11 | i
C[C@H]1CN([C@@H](C)CO)C(=O)c2cccc(NS(=O)(=O)c3ccccc3)c2O[C@H]1CN(C)C(=O)Nc1ccc(F)cc1 | 0.2 | i
CO[C@H]1CN(C)C(=O)c2ccc(NC(=O)c3cnccn3)cc2OC[C@H](C)N(C(C)=O)C[C@H]1C | -1.6 | i
C[C@@H]1CN([C@H](C)CO)C(=O)c2cc(NS(=O)(=O)c3cccs3)ccc2O[C@@H](C)CCCCO[C@H]1CN(C)CC1CC1 | 3.6 | i
CCC(=O)N1CCCCN2[C@H](C1)[C@H](c1ccc(-c3cccc(C(=O)N(C)C)c3)cc1)[C@@H]2CO | 16 | i
C[C@@H]1CN([C@H](C)CO)C(=O)c2cc(NC(=O)Nc3ccc(F)cc3)ccc2O[C@@H](C)CCCCO[C@@H]1CN(C)S(=O)(=O)c1ccc(Cl)cc1 | -1.3 | i
Cc1noc(C)c1S(=O)(=O)Nc1cccc2c1O[C@@H](CN(C)S(=O)(=O)c1ccc(Cl)cc1)[C@@H](C)CN([C@@H](C)CO)C2=O | 1.8 | i

Record cards, from the list above. Order of screens: MLL AF4-AF9 inh, FGF22 binding
CCCNC(=O)[C@H]1[C@H](CO)[C@H]2Cn3c(ccc(/C=C/c4ccccc4)c3=O)[C@@H]1N2C(=O)c1cccnc1 as listed: -6.7, i
CCC(=O)N1CCCCN2[C@H](C1)[C@H](c1ccc(-c3cccc(C(=O)N(C)C)c3)cc1)[C@@H]2CO as listed: 16, i
CO[C@H]1CN(C)C(=O)c2ccc(NC(=O)c3cnccn3)cc2OC[C@H](C)N(C(C)=O)C[C@H]1C as listed: -1.6, i
COc1ccc(S(=O)(=O)Nc2ccc3c(c2)C(=O)N([C@@H](C)CO)C[C@H](C)[C@@H](CN(C)C(=O)Nc2ccccc2)O3)cc1 as listed: 0.9, i

(cont.)
canonical_smiles | MLL AF4-AF9 inh | FGF22 binding
O=C(NCCN1CCCCC1)[C@H]1[C@H](CO)[C@H]2Cn3c(cccc3=O)[C@H]2N1C(=O)C1CC1 | -1.3 | i
COc1ccc(CN(C)C[C@@H]2Oc3ccc(NC(=O)Nc4ccc5c(c4)OCO5)cc3C(=O)N([C@H](C)CO)C[C@@H]2C)cc1 | 6.7 | i
CCNC(=O)C[C@H]1CC[C@H]2[C@@H](COc3ccc(NC(=O)Nc4ccccc4Cl)cc3C(=O)N2C)O1 | -4.5 | i
COc1cccc(NC(=O)N[C@H]2C=C[C@H](CC(=O)N3CCN(C)CC3)O[C@@H]2CO)c1 | 4.1 | i
COc1ccc2c3c(n(C)c2c1)[C@H](CO)N(Cc1cccc(F)c1)CC31CN(C(=O)Cc2ccccc2)C1 | 2.4 | i
CO[C@H]1CN(C)C(=O)c2cc(NC(=O)C3CCC3)ccc2OC[C@H](C)N(C(=O)CN(C)C)C[C@@H]1C | -0.1 | i
COc1ccc(-c2cn(CC[C@@H]3CC[C@@H](NC(=O)NC(C)C)[C@H](CO)O3)nn2)cc1 | 0.8 | i
C[C@H](CO)N1C[C@H](C)[C@H](CN(C)C(=O)Nc2cccc(F)c2)Oc2ncc(C3=CCCC3)cc2C1=O | -0.7 | i
C[C@H](CO)N1C[C@H](C)[C@H](CN(C)C(=O)NC2CCCCC2)OCCCC[C@H](C)Oc2ccc(NC(=O)CCC(F)(F)F)cc2C1=O | -2.4 | i
C[C@@H]1CN([C@@H](C)CO)C(=O)c2cc(NC(=O)Nc3ccc(F)cc3)ccc2O[C@@H]1CN(C)S(=O)(=O)c1cccs1 | -0.2 | i
Cc1ccc(S(=O)(=O)NCC[C@@H]2CC[C@@H](NC(=O)CCN3CCCCC3)[C@H](CO)O2)cc1 | 2.9 | i
C[C@@H](O)C#Cc1ccc2c(c1)O[C@@H](CN(C)C(=O)Cc1ccccn1)[C@@H](C)CN([C@@H](C)CO)S2(=O)=O | -3.8 | i
C[C@H](CO)N1C[C@H](C)[C@@H](CN(C)C(=O)NC2CCCCC2)Oc2ccc(NC(=O)CCN3CCOCC3)cc2C1=O | -1.4 | i
O=C(NCc1ccccc1)C(c1ccccc1)N(Cc1ccccc1)C(=O)Cc1ccccc1 (configuration not stated) | 1.1 | i
N#Cc1ccc(-c2ccc([C@H]3[C@@H](CO)N4CCCCN(C(=O)Nc5ccc(F)cc5)C[C@@H]34)cc2)cc1 | -11 | i

Overlap with the part before: 2 compounds; new compounds follow.
canonical_smiles | MLL AF4-AF9 inh | FGF22 binding
O=C(NCc1ccccc1)C(c1ccccc1)N(Cc1ccccc1)C(=O)Cc1ccccc1 (configuration not stated) | 1.1 | i
N#Cc1ccc(-c2ccc([C@H]3[C@@H](CO)N4CCCCN(C(=O)Nc5ccc(F)cc5)C[C@@H]34)cc2)cc1 | -11 | i
C[C@H](CO)N1C[C@H](C)[C@@H](CN(C)C(=O)CN(C)C)Oc2ncc(C#CC(C)(C)O)cc2C1=O | -3.5 | i
COCCNC(=O)C[C@@H]1CC[C@H]2[C@@H](COC[C@H](O)CN2S(=O)(=O)c2ccccc2C)O1 | -2.1 | i
O=C(C[C@@H]1CC[C@H]2[C@@H](COC[C@@H](O)CN2C(=O)Nc2cccc(F)c2)O1)NCCCN1CCOCC1 | -1.5 | i
CCCNC(=O)N[C@@H]1C=C[C@H](CC(=O)NC2CCC2)O[C@H]1CO | -1.6 | i
C[C@@H]1CN([C@@H](C)CO)C(=O)CCCn2cc(nn2)CO[C@@H]1CN(C)Cc1ccc2c(c1)OCCO2 | -1.7 | i
COc1ccccc1C#Cc1ccc([C@@H]2[C@H](CO)N3CCCCN(S(C)(=O)=O)C[C@@H]23)cc1 | 1.9 | i
CCCN(C)C[C@H]1Oc2cc(C#Cc3cccnc3)ccc2S(=O)(=O)N([C@H](C)CO)C[C@H]1C | 0.2 | i
C[C@H](CO)N1C[C@H](C)[C@H](CN(C)Cc2ccc(Cl)c(Cl)c2)Oc2ccc(NS(=O)(=O)c3ccccc3)cc2CC1=O | -1.0 | i
Cc1ccc(OC(=O)N(C)C[C@H]2OCc3cn(nn3)CCCC(=O)N([C@@H](C)CO)C[C@@H]2C)cc1 | -1.1&1.0&-0.1 | i
CN1C(=O)c2cc(NC(=O)Nc3ccc(F)cc3)ccc2OC[C@H]2O[C@@H](CC(=O)NC3CCC3)CC[C@H]21 | 1.8 | i
C[C@H](C(=O)N(C)C[C@H]1OCc2ccccc2-c2c(n(C)c3ccccc23)C(=O)N([C@@H](C)CO)C[C@@H]1C)c1ccccc1 | 7.9 | i
O=C(C[C@H]1C=C[C@@H](NC(=O)c2ccncc2)[C@@H](CO)O1)NCCc1ccncc1 | -1.2 | i
C[C@@H]1CCCCO[C@H](CN(C)C(=O)c2ccccc2)[C@@H](C)CN([C@@H](C)CO)C(=O)c2cc(NC(=O)c3ccncc3)ccc2O1 | -5.0 | i
C[C@@H]1CN([C@H](C)CO)C(=O)c2cc(C3=CCCC3)cnc2O[C@H]1CN(C)Cc1cccc(F)c1 | 4.9 | i
CO[C@H]1CC[C@H]2CCOc3ccc(C#N)cc3C(=O)N(C)CCCC(=O)N(C)C[C@@H]1O2 | 2.6 | i
O=C(O)CC(Sc1ccc(Cl)cc1)C(=O)Nc1ccccc1 (configuration not stated) | 0.1 | i
CO[C@H]1CN(C)C(=O)c2cc(NC(C)=O)ccc2OC[C@H](C)N(Cc2ccncc2)C[C@H]1C | -1.3 | i
Cn1cnc(S(=O)(=O)N2CCCCN3[C@H](CO)[C@@H](c4ccc(-c5cccc(F)c5)cc4)[C@@H]3C2)c1 | -0.6 | i
C/C=C/c1ccc([C@@H]2[C@@H](C#N)N(C(=O)c3cccnc3)[C@@H]2CO)cc1 | 0.0 | i
COc1ccc(C#Cc2cnc3c(c2)C(=O)N([C@H](C)CO)C[C@@H](C)[C@@H](CN(C)C(=O)c2ccccc2F)O3)cc1 | -2.3 | i
C[C@H]1CN([C@@H](C)CO)C(=O)c2cc(C#CC3CCCC3)cnc2O[C@H]1CN(C)S(C)(=O)=O | -7.2 | i
C[C@@H]1CN([C@@H](C)CO)C(=O)c2cc(NS(=O)(=O)c3cn(C)cn3)ccc2O[C@@H]1CN(C)S(=O)(=O)c1cccs1 | -2.0 | i
C[C@H](CO)N1C[C@H](C)[C@H](CN(C)C(=O)C2CCC2)Oc2cc(-c3cccnc3)ccc2S1(=O)=O | -1.1 | i
CO[C@@H]1CN(C)C(=O)c2cc(NS(=O)(=O)c3ccccc3)ccc2OC[C@H](C)NC[C@@H]1C | -0.6 | i
CO[C@H]1CN(C)C(=O)c2ccc(NC(=O)c3cc(C)on3)cc2OC[C@@H](C)N(CC2CC2)C[C@@H]1C | 0.5 | i
O=C(C[C@@H]1C[C@H]2c3cc(NC(=O)CC4CC4)ccc3O[C@H]2[C@@H](CO)O1)NCc1ccccc1 | -0.7 | i
CO[C@H]1CN(C)C(=O)c2cc(NS(=O)(=O)c3cccc(C)c3)ccc2OC[C@H](C)NC[C@@H]1C | -3.3 | i
COC(=O)C[C@@H]1CC[C@@H](NS(=O)(=O)c2ccc(OC)cc2)[C@H](CO)O1 | -4.2 | i
CCCc1cn(CC[C@H]2CC[C@@H](NC(=O)C3CCCC3)[C@H](CO)O2)nn1 | -1.8 | i
CO[C@@H]1CN(C)C(=O)c2ccc(NC(=O)C3CC3)cc2OC[C@@H](C)N(C(=O)c2ccncc2)C[C@H]1C | 0.3 | i
C[C@@H]1CN([C@@H](C)CO)C(=O)c2cc(C#CC3(O)CCCC3)cnc2O[C@@H]1CN(C)Cc1cncnc1 | -6.8 | i
COc1cccc(CNC(=O)C[C@@H]2CC[C@@H]3[C@@H](COc4ccc(NS(=O)(=O)c5ccccc5F)cc4C(=O)N3C)O2)c1 | -0.5 | i
C[C@@H]1CN([C@@H](C)CO)C(=O)Cc2cc(NS(C)(=O)=O)ccc2O[C@H]1CN(C)C(=O)Nc1ccc(F)cc1 | -1.7 | i
C[C@H](CO)N1C[C@H](C)[C@H](CN(C)S(=O)(=O)c2ccc(F)cc2)OCc2cn(nn2)CCCC1=O | -2.1 | i
COCC(=O)Nc1ccc2c(c1)C(=O)N(C)C[C@@H](OC)[C@@H](C)CN(C(=O)CC1CC1)[C@H](C)CO2 | -6.0 | i
C[C@@H]1CN([C@@H](C)CO)C(=O)c2cccc(NC(=O)Nc3ccc(C(F)(F)F)cc3)c2O[C@@H]1CN(C)Cc1ccc(Cl)c(Cl)c1 | -0.1 | i
COc1cccc(NC(=O)Nc2ccc3c(c2)OC[C@H](C)NC[C@@H](C)[C@@H](OC)CN(C)C3=O)c1 | 13 | i
COc1cccc(S(=O)(=O)N2C[C@@H](O)COC[C@H]3O[C@@H](CC(=O)N4CCOCC4)CC[C@@H]32)c1 | -1.6 | i
O=C([C@@H]1[C@@H](CO)[C@@H]2Cn3c(ccc(C4=CCCCC4)c3=O)[C@@H]2N1Cc1nccs1)N1CCOCC1 | -1.3 | i
COc1ccccc1NC(=O)N1CCCCN2[C@@H](CO)[C@H](c3ccc(C#Cc4ccccc4)cc3)[C@@H]2C1 | 3.9 | i
CCC(=O)N1[C@@H]2Cn3c(ccc(-c4ccncc4)c3=O)[C@H]1[C@@H](C(=O)N1CCc3ccccc3C1)[C@@H]2CO | -1.2 | i
CC(C)CC#Cc1cnc2c(c1)C(=O)N([C@@H](C)CO)C[C@@H](C)[C@@H](CN(C)C(=O)NC1CCCC1)O2 | -3.3 | i
Cc1noc(C)c1NC(=O)N(C)C[C@@H]1Oc2ccc(NS(=O)(=O)c3cn(C)cn3)cc2CC(=O)N([C@@H](C)CO)C[C@@H]1C | -5.8 | i
O=C(CC(F)(F)F)N1C[C@H]2[C@@H](c3ccccc31)[C@H](CO)N2C(=O)C1CCOCC1 | 0.4 | i
Cc1noc(C)c1NC(=O)N(C)C[C@H]1Oc2ncc(C#CC(C)C)cc2C(=O)N([C@H](C)CO)C[C@H]1C | -7.6 | i
O=C(Nc1ccc(-c2ccccc2)cc1)[C@H]1[C@H](CO)[C@H]2Cn3c(cccc3=O)[C@@H]1N2Cc1cncnc1 | 2.5 | i
O=C(C[C@@H]1C=C[C@H](NC(=O)Cc2cccnc2)[C@@H](CO)O1)NCc1ccc2c(c1)OCO2 | 0.2 | i
C[C@H](CO)N1C[C@H](C)[C@@H](CN(C)C)Oc2ncc(/C=C/c3ccccc3)cc2C1=O | 0.7 | i
